Bfl-1 A1 inh = inhibitors of the anti-apoptotic protein A1, read as caspase activation; MEF A1-2A-BIM cells, Caspase-Glo 3/7 luminescence, 3 h; percent of clofoctol response, vehicle zero; caspase activation, % (test concentration not listed); 0.066% of 330,000 active; AID 2462;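 active = over half of replicate activation scores above 10%, or exactly half above 10 with the replicate mean above 10; inconclusive = replicate mean below 10 yet half the replicates above 10; inactive = over half of replicates below 10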;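 also: wells of about 30 µL received 50 nL stock; many hits fall short of the cut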
Calb FLC = affects C. albicans growth with fluconazole | C. albicans CaCi-2 (fluconazole-resistant clinical isolate) + fluconazole, Alamar Blue growth, 48 h | growth inhibition, % (no concentration beside the values) | 0.57% of 300,000 active;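 active = most replicates above 75%; inconclusive = exactly half above 75%; inactive = most below 75%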;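 also: all wells also contain fluconazole at 8 µg/ml as a sub-toxic cotreatment; 0% = median of DMSO wells and 100% = median of geldanamycin control wells; wells of about 8 µL received 7.5 nL stock; the first replicate is given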
RanGTP-Imp inh = disruptors of Ran-importin-beta complex formation – biochemical, FRET, CFP-Ran, YFP-importin-beta, homogeneous, primary screen. 1.1% of 300,000 active. cell-free CFP-Ran/YFP-importin-beta FRET ratio. inhibition, % (concentration not given with the values). AID 2216;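 active = most replicates above 15%; inconclusive = exactly half above 15%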;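 also: 0% = DMSO wells and 100% = Ran loaded with GDP instead of GTP; wells of about 40 µL received 100 nL stock; the first replicate is given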
T cruzi repl = T. cruzi replication inhibition | T. cruzi beta-gal in NIH3T3, luminescence, 90 h | inhibition, % (no concentration beside the values) | 1.4% of 300,000 active | AID 1885;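 active = mean inhibition across valid replicates above about 55%, limit read from the data; inconclusive = mean below that limit but half or more replicates reach it; inactive = mean below it, under half of replicates reach it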;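 also: signal also drops with host cell toxicity which is not excluded here; 0% = plate median of DMSO wells and 100% = zero luminescence signal; higher percent means less beta-gal luminescence so fewer parasites; stock transfer was 50 nL into about 50 µL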
LANA-H2A inh = blocks KSHV LANA binding to histone H2A/H2B. cell-free LANA-H2A/H2B peptide, fluorescence polarization. inhibition, % (test concentration not listed). 0.6% of 320,000 active; in the data active = inhibition mostly above about 10%, no sharp cut-off; inactive = mostly below about 6.7%;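 also: stock transfer was 7.5 nL into about 10 µL; 0% = median of vehicle wells and 100% = median of positive control wells; one replicate is shown; the record names a cut of 25% in any replicate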
UCH37 inh = human UCH37 deubiquitinating enzyme inhibition; inhibition, % (concentration not given with the values); Q9Y5K5; purified proteasome/UCH37, Ub-AMC cleavage fluorescence; AID 588478; 0.33% of 330,000 active;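 active = mean of two replicates above 20%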;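 also: 0% = compound-free wells with enzyme and 100% = wells lacking proteasome; stock transfer was 100 nL into about 20 µL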
Target sequence (Q9Y5K5 whole entry, looked up): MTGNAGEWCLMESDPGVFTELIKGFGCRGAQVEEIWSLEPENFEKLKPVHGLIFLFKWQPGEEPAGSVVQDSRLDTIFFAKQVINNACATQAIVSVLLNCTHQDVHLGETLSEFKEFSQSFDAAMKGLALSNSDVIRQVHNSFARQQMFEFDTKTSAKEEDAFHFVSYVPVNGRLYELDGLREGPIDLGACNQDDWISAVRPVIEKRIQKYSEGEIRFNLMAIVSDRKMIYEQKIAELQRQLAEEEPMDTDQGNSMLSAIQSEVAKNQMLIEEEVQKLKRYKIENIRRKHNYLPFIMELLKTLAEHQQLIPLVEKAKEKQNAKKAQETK
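system = Proteasome-associated human UCH37 deubiquitinase | amount = 0.15 nM proteasome as dispensed | medium = pH 7.4 Tris-HCl (50 mM) with ovalbumin, ATP-MgCl2, DTT | incubation = 30 min preincubation with enzyme, 25 min cleavage at room temperature | detection = AMC fluorescence 355/460 nm | read-out basis = percent inhibition | controls = no-proteasome and no-compound wells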
Beta cell apopt = blocks beta cell apoptosis; protection from apoptosis, % (test concentration not listed); 0.8% of 300,000 active; INS-1E cytokine-induced death, ATP luminescence, 48 h; percent of positive-control rescue, neutral wells zero; AID 435005;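 active = all replicates at 75% or more, or half of them and the mean; inconclusive = half reach 75% but not the mean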;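 also: 0% = cytokine-treated negative control wells and 100% = positive control rescue; higher means more ATP so stronger rescue from cytokine killing; wells of about 40 µL received 100 nL stock; the first replicate is given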
Beta2AR agonist = agonists of human beta-2 adrenergic receptor inducing internalization; P07550; Am2.2-beta2AR cells, FAP receptor internalization, flow cytometry; reference of the scale not given here; response, % (test concentration not listed); 0.43% of 340,000 active;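 active = response above a set limit, near 3 SD of response in nonfluorescent compounds, cut at about 42% in these data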;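 also: stock transfer was 100 nL into about 11 µL; a reference agonist was the positive control; negative values mostly stem from fluorescent compounds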
Target sequence (P07550 whole entry, looked up): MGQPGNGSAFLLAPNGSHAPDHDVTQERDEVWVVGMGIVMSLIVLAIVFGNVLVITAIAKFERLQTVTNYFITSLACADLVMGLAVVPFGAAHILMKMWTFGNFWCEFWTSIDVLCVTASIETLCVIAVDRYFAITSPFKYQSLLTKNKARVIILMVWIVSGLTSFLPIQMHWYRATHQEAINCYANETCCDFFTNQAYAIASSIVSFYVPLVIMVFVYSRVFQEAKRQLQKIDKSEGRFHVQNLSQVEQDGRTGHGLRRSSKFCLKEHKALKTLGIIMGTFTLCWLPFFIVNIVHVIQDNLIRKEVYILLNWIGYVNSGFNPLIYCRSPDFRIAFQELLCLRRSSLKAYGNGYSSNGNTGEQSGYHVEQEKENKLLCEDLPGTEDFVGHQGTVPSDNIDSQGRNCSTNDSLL
Active calls of the source: *; ? = inconclusive; nt = not tested or not shown.

The opening twelve records (preview)
SMILES	Bfl-1 A1 inh	Calb FLC	RanGTP-Imp inh	T cruzi repl	LANA-H2A inh	UCH37 inh	Beta cell apopt	Beta2AR agonist
O=c1c2[nH]c3ccc(F)cc3c2ncn1CCN1CCOCC1	-0.6	-4	1.1	-3	-13	-1.2	0	-19
CCOc1cc(/C=C/C(=O)OCC(=O)NCC2CCCO2)cc(Cl)c1OC (stereo not given)	0.4	nt	nt	nt	-6.2	-5.4	3	11
COc1ccc(OC)c(/C=C2\Oc3cc(OCC(=O)N4CCC(C(=O)O)CC4)ccc3C2=O)c1	0.2	-5	-44	-4	0.1	12	-4	2
Cc1c(OCC(=O)N2CCC(C(=O)O)CC2)ccc2c1oc(=O)c1ccccc12	-0.7	4	-6.4	?	-4.2	-462	nt	-9
O=c1[nH]c(=S)[nH]c2c1CN(Cc1ccc(F)cc1)CC2	1.2	4	2.4	-8	-16	0.7	2	1
CCCOc1ccc(CNC(=O)c2ccc3c(c2)N(CC)CCS3)cc1	nt	-16	1.4	20	-3.6	-50	-2	-7
CC(NC(=O)c1ccc2c(c1)OCO2)C(c1cccs1)N1CCOCC1 (stereo not given)	0.6	-9	-1.0	-6	-5.3	3.1	0	0
Cc1cc(C)n2nc(SCC(=O)NC(=O)c3ccc(OC(F)F)cc3)nc2n1	-1.4	nt	nt	nt	0.9	3.5	-1	2
O=C1CC(c2ccccc2)CC(O)=C1C=NCc1ccco1 (stereo not given)	0.4	14	1.8	-15	-1.3	2.1	2	-3
CC(=O)Nc1cccc(-c2csc(N)n2)c1	-0.1	6	?	-7	-2.2	nt	-3	3
O=C(c1cnc2n(c1=O)CCS2)N1CCN(c2ccc([N+](=O)[O-])cc2)CC1	0.1	-8	-3.1	0	-2.3	9.1	-5	-6
COC(=O)c1ccccc1NC(=O)CN1CCC(n2nnc3cc(F)ccc32)CC1	-0.6	3	-6.1	5	4.0	2.1	1	1

The list itself, from the first entry:
SMILES	Bfl-1 A1 inh	Calb FLC	RanGTP-Imp inh	T cruzi repl	LANA-H2A inh	UCH37 inh	Beta cell apopt	Beta2AR agonist
O=c1c2[nH]c3ccc(F)cc3c2ncn1CCN1CCOCC1	-0.6	-4	1.1	-3	-13	-1.2	0	-19
CCOc1cc(/C=C/C(=O)OCC(=O)NCC2CCCO2)cc(Cl)c1OC (stereo not given)	0.4	nt	nt	nt	-6.2	-5.4	3	11
COc1ccc(OC)c(/C=C2\Oc3cc(OCC(=O)N4CCC(C(=O)O)CC4)ccc3C2=O)c1	0.2	-5	-44	-4	0.1	12	-4	2
Cc1c(OCC(=O)N2CCC(C(=O)O)CC2)ccc2c1oc(=O)c1ccccc12	-0.7	4	-6.4	?	-4.2	-462	nt	-9
O=c1[nH]c(=S)[nH]c2c1CN(Cc1ccc(F)cc1)CC2	1.2	4	2.4	-8	-16	0.7	2	1
CCCOc1ccc(CNC(=O)c2ccc3c(c2)N(CC)CCS3)cc1	nt	-16	1.4	20	-3.6	-50	-2	-7
CC(NC(=O)c1ccc2c(c1)OCO2)C(c1cccs1)N1CCOCC1 (stereo not given)	0.6	-9	-1.0	-6	-5.3	3.1	0	0
Cc1cc(C)n2nc(SCC(=O)NC(=O)c3ccc(OC(F)F)cc3)nc2n1	-1.4	nt	nt	nt	0.9	3.5	-1	2
O=C1CC(c2ccccc2)CC(O)=C1C=NCc1ccco1 (stereo not given)	0.4	14	1.8	-15	-1.3	2.1	2	-3
CC(=O)Nc1cccc(-c2csc(N)n2)c1	-0.1	6	?	-7	-2.2	nt	-3	3
O=C(c1cnc2n(c1=O)CCS2)N1CCN(c2ccc([N+](=O)[O-])cc2)CC1	0.1	-8	-3.1	0	-2.3	9.1	-5	-6
COC(=O)c1ccccc1NC(=O)CN1CCC(n2nnc3cc(F)ccc32)CC1	-0.6	3	-6.1	5	4.0	2.1	1	1
CCC1(c2ccc(F)cc2)NC(=O)N(CC(=O)Nc2cccnc2Cl)C1=O (stereo not given)	-0.2	1	-0.1	-6	0.9	3.6	0	2
Cc1nnc(NC(=O)CSc2nc(C(C)C)nc3ccccc23)s1	0.5	3	1.2	2	-2.0	5.3	1	-11
O=C(Nc1ccc2[nH]c(=O)[nH]c2c1)c1cc(F)c(F)cc1Cl	0.7	-8	3.5	-9	-1.2	4.4	-2	-8
CC(=O)OCC1=C(C(=O)O)N2C(=O)C(NC(=O)CCn3nc(C(F)(F)F)c(Br)c3C3CC3)C2SC1 (stereo not given)	0.0	7	3.8	-17	1.6	1.2	-7	-4
Cc1n[nH]c(=O)nc1NCc1ccco1	0.2	3	0.6	-15	0.6	1.5	-7	1
CCOC(=O)CNC(=O)c1nn(-c2ccc(OCC)cc2)c(=O)c2ccccc12	-0.3	nt	nt	nt	-3.7	-3.3	-6	8
COc1ccccc1N1CCN(C(=O)c2onc(C)c2Cl)CC1	-0.4	13	2.1	-1	-0.1	2.6	3	-2
COc1ccc2sc(NC(=O)c3ccco3)nc2c1	-7.2	5	-4.6	-17	-2.4	2.9	13	-5
Cc1ccsc1/C=N/n1c(-c2ccccn2)n[nH]c1=S	0.4	-4	0.3	-12	1.3	nt	-3	7
CCOc1ccc(NC(=O)CN(C)C(=O)c2cn3ccccc3n2)cc1OCC	0.3	0	nt	9	-3.1	4.7	-14	-8
COc1ccc(CNC(=O)c2ccc3ccccc3n2)cc1OC	-0.6	7	0.5	-19	-4.4	1.2	3	-11
Cc1cccc(S(=O)(=O)NCCNS(=O)(=O)c2cccc(C)c2)c1	0.2	2	0.6	8	12	3.3	-5	-2
COc1ccc(OCC2CNC(=O)O2)cc1 (stereo not given)	0.3	-5	0.3	-11	-0.2	nt	0	-1
CCc1sc(NC(=O)c2cc3ccccc3oc2=O)nc1-c1cccs1	0.3	1	-1.0	-1	1.2	3.9	nt	-14
COc1ccccc1/C=C/CN1CCN(Cc2ccc(C)o2)C(CCO)C1 (stereo not given)	-1.7	0	5.2	13	3.4	-0.9	-4	-3
COC(=O)C(NC(=O)c1c(C)nn(C)c1Cl)c1ccccc1 (stereo not given)	1.3	0	0.2	7	-4.0	nt	0	-1
CCOc1cc(/C=C/c2cccc[n+]2C)ccc1O	0.3	2	-1.1	-4	-0.4	18	nt	1
COc1ccccc1CCc1nnc(CCC(=O)NCCCOc2cccnc2)o1	-0.1	2	-3.6	-2	0.9	1.1	-3	-9

2 entries from above, as a markdown table:
| molecule | Bfl-1 A1 inh | Calb FLC | RanGTP-Imp inh | T cruzi repl | LANA-H2A inh | UCH37 inh | Beta cell apopt | Beta2AR agonist |
| --- | --- | --- | --- | --- | --- | --- | --- | --- |
| Cc1n[nH]c(=O)nc1NCc1ccco1 | 0.2 | 3 | 0.6 | -15 | 0.6 | 1.5 | -7 | 1 |
| CCOC(=O)CNC(=O)c1nn(-c2ccc(OCC)cc2)c(=O)c2ccccc12 | -0.3 | nt | nt | nt | -3.7 | -3.3 | -6 | 8 |

(more compounds)
SMILES	Bfl-1 A1 inh	Calb FLC	RanGTP-Imp inh	T cruzi repl	LANA-H2A inh	UCH37 inh	Beta cell apopt	Beta2AR agonist
COc1ccccc1-c1c(C)nn2c(N3CCOCC3)cc(C)nc12	0.8	-8	6.6	-1	-0.2	1.9	1	-6
COc1ccc(CCNC(=O)c2ccc3c(c2)NC(=O)C(CSCc2cc(C)ccc2C)N3)cc1OC (stereo not given)	-1.0	1	-4.4	-21	-5.3	nt	-3	nt
C[C@H](NC(=O)OC(C)(C)C)C(=O)N/N=C/c1cccc2nccnc12	-1.8	14	2.5	nt	-0.4	nt	nt	8
COc1ccc(CN2C(=O)C(Cc3ccccc3)Nc3ncnc(N4CCN(c5ccccc5)CC4)c32)cc1 (stereo not given)	0.2	33	3.2	25	8.3	2.1	-1	-3
CCn1c(SCc2nc3ccccc3[nH]2)nnc1-c1cccs1	0.0	5	1.7	6	-3.6	0.4	1	-11
O=C(CCn1c(=O)oc2ccccc21)NCCCN1CCN(c2ccc(F)cc2)CC1	0.1	11	4.0	4	1.0	1.4	-3	15
CC1=NN(c2ccc(Cl)cc2)C(=O)C1C(c1cccc(O)c1)c1c(C)[nH]n(-c2ccc(Cl)cc2)c1=O (stereo not given)	-0.2	-1	0.5	-20	6.2	-4.0	10	-2
COc1ccc(NC(=O)CN2C(=O)NC(C)(C3CC3)C2=O)cc1S(=O)(=O)N1CCOCC1 (stereo not given)	0.4	nt	nt	nt	-1.9	3.1	1	-3
CC(OC(=O)c1cccc([N+](=O)[O-])c1)C(=O)N1CCc2ccccc21 (stereo not given)	0.5	nt	nt	nt	6.1	3.8	-6	-2
Cc1cc2c(cc1C)[n+](C)cn2CC(O)COCC1CC=CCC1 (stereo not given)	0.4	-23	2.0	18	3.2	2.1	22	-5
CCCCN1C=CC(=C2C(=O)c3ccccc3C2=O)C=C1	-7.7	11	3.9	-6	7.5	8.8	38	-1
CN(C(=O)c1c(Cl)cnn1C)C12CC3CC(CC(C3)C1)C2	0.8	-4	2.9	7	1.5	4.6	-6	2
CC1Cc2cc(/C=C3/SC(=S)NC3=O)ccc2O1 (stereo not given)	-3.2	0	-0.5	-3	-1.3	10	8	9
CC(Oc1cc2oc(=O)c3c(c2cc1Cl)CCC3)C(=O)NCc1ccncc1 (stereo not given)	-1.2	-17	4.0	-13	-2.9	-2.6	2	-18
O=C(CCn1c(=O)oc2ccccc21)N1CCCCCC1	0.2	5	-2.0	-7	-0.2	3.5	-6	-9
COc1cc(/C=C2\C(=N)N3N=CSC3=NC2=O)cc(Br)c1OC(=O)c1ccco1	0.5	-2	nt	3	2.6	9.4	4	-66
COc1ccccc1N1CCN(C(=O)C2CCN(S(=O)(=O)c3ccc(C)cc3)CC2)CC1	0.8	1	2.3	8	-5.4	0.7	-1	-5
CC(=O)Nc1ccc2ccccc2c1	0.2	-3	2.0	-10	0.5	0.7	0	0
COc1ccc(-c2noc(-c3ccc(Cl)cc3[N+](=O)[O-])n2)cc1OC	-1.0	-3	-3.5	-6	1.0	1.6	-8	-25
CCOc1cc(N2CCOCC2)c(OCC)cc1NC(C)C(=O)N1CCC(C)CC1 (stereo not given)	0.1	22	-0.5	43	0.3	2.6	6	2
COc1ccc(NC(=O)CC2CCCCC2)cc1OC	0.3	13	?	-12	0.9	3.9	0	-6
COCCNc1nnc(SCC(=O)N2CCN(S(=O)(=O)c3ccccc3)CC2)s1	0.2	1	0.5	-3	3.0	1.2	-7	-2
Cc1ccc(/C=C(\NC(=O)c2ccccc2)C(=O)NCCc2ccccn2)o1	0.2	-6	2.7	-1	1.0	3.9	4	-10
Cc1ccccc1N/C(SCc1ccc(Cl)cc1)=C(/C#N)C(N)=O	0.0	35	?	17	-1.6	5.5	-5	6
O=C1c2ccccc2NC(c2ccc(Br)s2)N1O (stereo not given)	-0.7	2	1.7	-10	-2.9	-0.9	11	1
NNC(=O)CNC(c1ccccc1)c1cc(Cl)ccc1NC(=O)c1ccccc1 (stereo not given)	0.3	-30	3.1	-1	12	3.6	-1	1

Source: PubChem (several laboratories)
